Methyltransferases – Primary Screen for Target Class Profiling of Small Molecule Inhibitors of Methyltransferases. 25,000 tested, 3.9% active. AID 1745853, 2022. purified enzyme, MTase-Glo SAH luminescence; hits give low values. calls only at 40 µM; active = -50% or lower on at least one of six enzymes; inconclusive = the cases between; inactive = as a rule above -30% on all six;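 also: enzymes were COMT GAMT GNMT HNMT NNMT and PNMT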
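Each enzyme was reacted with SAM and its substrate, with compounds tested once at 40 uM; SAH formed was read by MTase-Glo luminescence.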
Calls only; i = inactive; ? = inconclusive; + = active, no number. % is scaled to controls: 0 for no effect and ±100 for the full control effect. The list is partial (hit frequency here may not be typical).

SMILES	Methyltransferases
COc1ccc(OC)c(S(=O)(=O)N2CCCC3(CC2)CNC(=O)O3)c1 (centres undefined)	i
Cc1ccc(CN2CC(=O)N(Cc3ccccc3F)c3ccccc3S2(=O)=O)cc1	i
CC1=C2CC(=O)C(C)CC/C=C(\C)CC2OC1=O (centres undefined)	i
C[S+](=O)([O-])NC1CC2(CCN(C(=O)c3ccccc3)CC2)c2ccccc21 (centres undefined)	i
Cc1cc2c(c(=O)o1)C=C1CC[C@H]([C@H](C)Cn3cnc(=N)c4[nH]cnc43)C[C@@H]1O2	?
O=C(Cn1cccc1-c1nc(-c2ccccc2)no1)N1CCN(c2ccccc2)CC1	i
CC(C)c1c(C(=O)Nc2ccccc2)c(-c2ccccc2)c(-c2ccc(F)cc2)n1CC[C@@H](O)C[C@@H](O)CC(=O)O	i
O=c1[nH]c2ccc(S(=O)(=O)NCc3cccnc3)cc2[nH]1	i
CC(C)(C)Nc1nc2cc(Cl)c(Cl)cc2nc1S(C)(=O)=O	?
CN(C)c1cccc(-c2cnc(Nc3cnccn3)c3c2CCO3)c1	i
Cc1ccc(Cn2nc3n(Cc4ccc(F)cc4)c(=O)c4ccccc4n3c2=O)cc1	i
CCN(CC)CCCNC(=O)c1cc2n(n1)CC(C)(C(=O)NCc1ccccc1)N(C)C2=O (centres undefined)	i
COc1ccc(CN2CCC3(C2)C(=NC2CCCCC2)NC(=O)N3c2cc(F)cc(F)c2)cc1 (centres undefined)	i
COc1cccc(CN2C(=O)c3cc(C4CC4)nn3CC2(C)C(=O)NC2CCCCCC2)c1 (centres undefined)	i
CNC(C)C(=O)NC(C(=O)N1CCCC1c1nc(C(=O)c2ccc(F)cc2)cs1)C1CCCCC1 (centres undefined)	?
CC1(C(=O)NC2CCCC2)Cn2c(cc3sccc32)C(=O)N1Cc1ccccc1 (centres undefined)	i
COCC(=O)NC[C@H]1O[C@@H](CO)[C@@H](O)[C@H]1N1CCN(c2cccc(C(F)(F)F)c2)CC1	i
Cc1cnc2c(C(=O)N3CCCn4nc(C(C)O)cc4C3)cnn2c1 (centres undefined)	i
CC1(C(=O)NC2CCCCC2)Cn2c(ccc2-c2ccco2)C(=O)N1Cc1ccccc1F (centres undefined)	i
CCn1c(CO)nnc1C1CC(NC(=O)CCc2c(C)nn(C)c2C)C1 (centres undefined)	i
Cc1ccccc1CN1C(=O)c2cc3occc3n2CC1(C)C(=O)NC1CCCCCC1 (centres undefined)	i
CCCCOc1ccc(CC/C=C2\SC(=O)N(CCN)C2=O)cc1	?
O=C(Cn1ccc2cc(S(=O)(=O)N3CCCC3)ccc21)NCCc1ccc(Cl)cc1	i
C=CCCC(CN1CCCOCC1)Oc1cc(C#N)ccn1 (centres undefined)	i
C[C@@H](CN1CCC(Cc2ccccc2)CC1)[C@@H](O)c1ccc(O)cc1	i
Cn1nc2n(c1=O)CCC(NC(=O)c1n[nH]c3c1CC(C(C)(C)C)CC3)CC2 (centres undefined)	i
COc1cccc(CNc2nc3c(-c4ccc(C)cc4)nnn3c3ccccc23)c1	i
CCCCNc1ncc(-c2ccc(CN3CCOCC3)cn2)c(NC2CCC(O)CC2)n1 (centres undefined)	i
O=C(Cn1cccn1)N1CC[C@@H]2[C@@H](CCC(=O)N2CCc2cnc[nH]2)C1	i
C[C@@H](NC(=O)C1CCCC1)c1onc(-c2cccnc2)c1C(=O)O	i

4 entries from above, set out differently:
CC1(C(=O)NC2CCCCC2)Cn2c(ccc2-c2ccco2)C(=O)N1Cc1ccccc1F (centres undefined)
  Methyltransferases = i

CCn1c(CO)nnc1C1CC(NC(=O)CCc2c(C)nn(C)c2C)C1 (centres undefined)
  Methyltransferases = i

Cc1ccccc1CN1C(=O)c2cc3occc3n2CC1(C)C(=O)NC1CCCCCC1 (centres undefined)
  Methyltransferases = i

CCCCOc1ccc(CC/C=C2\SC(=O)N(CCN)C2=O)cc1
  Methyltransferases = ?

Going on with the list.
SMILES	Methyltransferases
O=C(c1cnccn1)N1CCN2C(=O)N(C3CCOCC3)C[C@H]2C1	i
CC1c2cccn2CCN1C(=O)Nc1ccc(Br)cc1 (centres undefined)	i
COc1ncccc1Nc1cnc2ccc(N3CCOCC3)nn12	i
CCc1ccc(NC(=O)N2CCn3c(C)ccc3C2CC)cc1 (centres undefined)	i
CN1CCN(c2nc3c(-c4cccc(F)c4)nnn3c3ccc(Cl)cc23)CC1	i
CC1CCC(NC(=O)C2(C)Cn3c(cc4sccc43)C(=O)N2Cc2ccc(Cl)cc2)CC1 (centres undefined)	i
CNC(=O)Nc1cccn2nc(-c3ccccc3)nc12	i
Nc1nccc(-c2ccc3noc(-c4ccc(Cl)cc4)c3c2)n1	?
NC(=O)CNCCC(c1ccccc1)c1ccccc1	i
CCc1cccc(N2C(=O)c3cc(-c4ccccc4)nn3CC2(C)C(=O)NCCCOC)c1 (centres undefined)	i
CC(C)CCn1c(=O)c2ccccc2n2c(=O)n(CC(=O)Nc3ccc(Cl)cc3)nc12	i
O=C(c1cc(CN2CCC(Cc3ccccc3)CC2)on1)N1CCN2CCCC2C1 (centres undefined)	i
Cc1ccc(C(=O)Cn2nc3n(CCCOC(C)C)c(=O)c4ccccc4n3c2=O)cc1	i
C[C@@H]1C(=O)O[C@H]2C[C@]34[C@H]5C[C@@H](C(C)(C)C)[C@]36[C@@H](OC(=O)[C@H]6O)O[C@]4(C(=O)O5)[C@]21O	i
COc1ccccc1CNCCCCCCNCCCCCCCCNCCCCCCNCc1ccccc1OC	+
c1ccc(CNc2ncc(CN3CCC4(CCNCC4)C3)cn2)cc1	i
CC(C)NC(=O)c1ccc2c(=O)n(C(C)C)c3nn(Cc4ccccc4F)c(=O)n3c2c1	i
CCC(C)C(=O)OC1CC(O)C23C4OCC5(C(O)CC2C1(C)C(O)O4)C3C(=O)C(O)C1(C)C(O)(c2ccoc2)CC2OC251 (centres undefined)	+
Clc1ccccc1C(c1ccccc1)(c1ccccc1)n1ccnc1	?
CCCn1c(=O)c2ccc(Cl)cc2n2c(=O)n(CC(=O)Nc3ccc(Cl)cc3)nc12	i
CCOc1ccc(C(=O)Cn2nc3n(CC(C)C)c(=O)c4ccc(C(=O)NC(C)CC)cc4n3c2=O)cc1 (centres undefined)	i
COc1c2c(c(C)c3c1C(=O)OC3)OC1(C)CC(O)C34OC(OC)(CCC3(C)C1C2)OC4(C)CO (centres undefined)	i
CC(C)(C)c1cc(CC2(NCc3ccc(Cl)cc3)COC2)no1	i
CC1(C(=O)NC2CCCCCC2)Cn2c(ccc2-c2ccco2)C(=O)N1Cc1cccs1 (centres undefined)	i
CCCn1c(=O)c2ccc(C(=O)NC3CCCC3)cc2n2c(=O)n(CC(=O)Nc3ccccc3F)nc12	i
COc1ccc(/C=C/C(=O)O[C@@H]2[C@@H](O)[C@H](C)O[C@@H](O[C@H]3[C@@H]4C=CO[C@@H](O[C@H]5O[C@@H](CO)[C@H](O)[C@@H](O)[C@@H]5O)[C@@H]4[C@@]4(CO)O[C@@H]34)[C@@H]2OC(C)=O)cc1	?
Cc1ccc(CNC(=O)CCn2ccc3cc(S(=O)(=O)N4CCCCC4)ccc32)o1	i
CCOc1cc(CNC(=O)c2cc3n(n2)CC(C)(C(=O)NCc2ccccc2)N(C)C3=O)ccc1OC (centres undefined)	i
CC(C)c1nc2c(c(-c3ccc(O)cc3)n1)CN(Cc1cccn1C)CC2	i
COc1ccc(NS(=O)(=O)c2cc3c(cc2C)n(C)c(=O)n3C)cc1	i

(list continues)
SMILES	Methyltransferases
Clc1ccc(CNc2nc3c(-c4ccccc4)nnn3c3ccccc23)cc1	i
CN1C(=O)C(c2ccccc2)CC12CCN(S(=O)(=O)N(C)C)CC2 (centres undefined)	i
CC(C)Cn1c(=O)c2ccc(C(=O)NC(C)C)cc2n2c(=O)n(CC(=O)c3cccc(Cl)c3)nc12	i
CCNC(=O)N1CCCC(Cc2noc(-c3cnccn3)n2)C1 (centres undefined)	i
CN1CCOC[C@H]2CCN(C(=O)c3cccs3)C[C@H]21	i
O=C(NC1CCCCC1)O[C@@H]1CO[C@H]2[C@@H]1OC[C@@H]2NS(=O)(=O)c1ccc(Cl)cc1	i
CCc1cc2c(cc3n2CC(C)(C(=O)NC2CCCCCC2)N(CCCOC(C)C)C3=O)s1 (centres undefined)	i
CC(C)(C)C(=O)N1CCC2(CC1)C(=O)N(CC(=O)Nc1cccc(Cl)c1)CN2c1ccccc1	i
CSc1ccc(C(=O)c2[nH]c(=O)[nH]c2C)cc1	i
CCN1CC(C(=O)N(C)Cc2ccc(Oc3ccccc3)cc2)CCC1=O (centres undefined)	i
Cc1ccccc1NC(=O)Nc1ccc(CC(=O)N(C)[C@@H](CC(C)C)C(=O)NCC[C@H](NC(=O)[C@@H]2CCCN2S(=O)(=O)c2cc(Cl)cc(Cl)c2)C(=O)O)cc1	i
Cc1ccc(-c2cn3c(n2)N(S(C)(=O)=O)CCC3)cc1	i
Cc1ccc(C(=O)N2CCN(c3ccc([N+](=O)[O-])cc3)CC2)cc1Cl	i
c1ccc(CN2CCc3c(sc4ncnc(N5CCOCC5)c34)C2)cc1	+
COc1ccc(-c2nnc3n(CCc4ccccc4)c(=O)c4ccccc4n23)cc1OC	i
CCOC(=O)c1cc2n(n1)CC(C)(C(=O)NCc1ccccc1OC)N(c1cc(OC)cc(OC)c1)C2=O (centres undefined)	i
Cc1ccc(NS(=O)(=O)c2ccc3c(c2)[C@H]2C=CC[C@H]2[C@@H](c2cccc(Cl)c2)N3)cc1C	i
COc1ccccc1C(=O)Nc1cc2c(cc1N1CCCCC1)n(C)c(=O)n2C	?
Cn1nccc1OCc1cn2c(=O)n(C)cc(-c3ccc(F)cc3)c2n1	i
CN1CCCC(CN(C)C(=O)c2cc(-c3cnn(CCO)c3)nc3ccccc23)C1 (centres undefined)	i
O=C(Nc1ccc(Cl)nc1)c1ccc2ccnn2c1	i
COc1ccccc1NC(=O)Cn1nc2n(CCC(C)C)c(=O)c3ccccc3n2c1=O	i
COc1ccc(CN2C(=O)c3ccc(-c4ccco4)n3CC2(C)C(=O)NC2CCCC2)cc1 (centres undefined)	i
Cc1ccc(N2C(=O)c3cc(-c4cccs4)nn3CC2(C)C(=O)NC2CCCCC2)cc1C (centres undefined)	i
Cc1ccc(Nc2nnc(-c3ccc([N+](=O)[O-])cc3)o2)cc1Cl	i
COCCc1noc([C@@H]2CC(F)(F)CN2C(=O)c2ccoc2)n1	i
O=S(=O)(c1ccccc1)c1nnn2c1nc(NCc1ccc(Cl)cc1)c1ccccc12	i
COc1ccc(C(=O)Cn2nc3n(CCc4ccccc4)c(=O)c4ccccc4n3c2=O)cc1OC	i
CCN(Cc1noc(C2CCC2)n1)C(=O)CC1C(=O)NCCN1CC(C)C (centres undefined)	i
CC/C(=C(\c1ccc(O)cc1)c1ccc(OCCNC)cc1)c1ccccc1	i

Continued (2 carried over from the part before).
SMILES	Methyltransferases
CCN(Cc1noc(C2CCC2)n1)C(=O)CC1C(=O)NCCN1CC(C)C (centres undefined)	i
CC/C(=C(\c1ccc(O)cc1)c1ccc(OCCNC)cc1)c1ccccc1	i
CC1CCC(Nc2nc3c(-c4cccc(F)c4)nnn3c3ccccc23)CC1 (centres undefined)	i
COC[C@H]1C[C@@H](NC(=O)Nc2cccnc2)[C@H](O)[C@@H]1O	i
CN1CC(O)CN([S+](=O)([O-])c2cccs2)CC1=O (centres undefined)	i
O=S(=O)(Nc1cccc2c1CCCC2)c1ccc2[nH]c3c(c2c1)CCCC3	i
C=CCN(C)C(=O)C[C@@H]1c2nc(NC(=O)c3ccco3)sc2C[C@@H]2[C@](C)(CO)[C@H](O)CC[C@]21C	i
Cc1ccc(C)c(N2CCN(C(=O)c3cc4n(n3)CC(C)(C(=O)NCCC(C)C)N(C)C4=O)CC2)c1 (centres undefined)	i
CC1=C[C@@H](CNC(=O)COc2ccccc2)[C@H](C(C)C)C[C@H]1CC(=O)NCCN(C)C	i
COc1ccc(-c2cc3n(n2)CC(C)(C(=O)NCc2ccccc2OC)N(c2ccc(C(C)C)cc2)C3=O)cc1 (centres undefined)	i
CC1(C(=O)NC2CCCCCC2)Cn2c(cc3occc32)C(=O)N1Cc1ccccc1Cl (centres undefined)	i
COc1ccc(-c2cc(N3CCCC(NC(=O)c4cccc(C)c4)C3)n[nH]2)cc1 (centres undefined)	i
O=C(CCCc1nnc2n3nc(-c4ccccc4)nc3c3ccccc3n12)N1CCN(c2ccccc2F)CC1	i
COc1ccccc1C(=O)N1CC(N(C)c2ccccc2C)C1	i
COc1cccc(CN2CCC3(CC2)C(C(=O)O)CC(=O)N3C)c1OC (centres undefined)	i
COCCOCCOc1ccc(C2=N[C@@](C)(C(=O)O)CS2)c(O)c1	i
COc1ccccc1-c1nnc2ccc(C(=O)N3CCN(C(C)=O)CC3)cn12	i
CCCN1C(=O)c2c(C(=O)N3CCN(c4ccccc4)CC3)ncn2CC1(C)C(=O)NCc1ccc(F)cc1 (centres undefined)	i
CCc1cccc(NC(=O)Cn2c(=O)oc3cc(S(=O)(=O)N4CCC(C)CC4)ccc32)c1	i
CN(CCN1CCCCCC1)C(=O)c1cc(COc2ccccc2)[nH]n1	i
O=C(Cn1c(=O)oc2cc(S(=O)(=O)N3CCCC3)ccc21)Nc1cccc(Cl)c1	i
C=C[C@@]12COC(=O)C(=C)[C@@H]1[C@@H](O)[C@H](C(=C)C(=O)OC)[C@@H](O)C2	i

Screening results as filed in PubChem BioAssay.
